High-throughput results deposited in PubChem BioAssay by several laboratories.
Arbovirus inh – arbovirus infection inhibition; arbovirus infection cell-based antiviral screen; inhibition, % at 10 µM; actives 0.37% (n = 200,000); AID 1251;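 active = inhibition from about 30%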;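 also: bluetongue infection of BSR cells; cell survival read as ATP light after 72 h; 0% = infected wells without compound and 100% = uninfected wells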
Mtb betalactam – beta-lactam sensitization of Mtb H37Rv. M. tuberculosis H37Rv growth with meropenem, percent inhibition; hits of this screen are not shown here. inhibition, % at 25 µM. actives 0.27% (n = 330,000). AID 434955;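 active = about 74% or more and at least 40 points above the plate without the antibiotic, then above 30% in a dose series; inconclusive = first-round hits that could not be retested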;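 also: growth measured after seven days incubation then overnight dye step; 0% = bacteria only wells and 100% = bacteria with antibiotic; twin plates without the antibiotic show which effects depend on it; some results filed as inactive read as strong as hits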
YopH inh – YopH (Yersinia) phosphatase inhibition. fluorescence Ex485/Em525. inhibition, %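 (about 10 µM by stock and volumes)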. actives 0.16% (n = 140,000). AID 898;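 active = inhibition of 50% or more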;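 also: controls were vehicle for no effect and minimum signal wells for full effect; inactives centre near -20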
RecA splice inh – Mtb RecA intein splicing inhibition | P9WHJ3 | cell-free RecA intein splicing, fluorescence | inhibition, %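 (about 9 µM by stock and volumes)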 | actives 0.75% (n = 290,000); in the data active = inhibition above about 30%; inconclusive = no clear call, values can overlap the other calls;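 also: 0% = vehicle wells and 100% = reference inhibitor control wells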
Target sequence (P9WHJ3 whole entry, looked up, canonical isoform): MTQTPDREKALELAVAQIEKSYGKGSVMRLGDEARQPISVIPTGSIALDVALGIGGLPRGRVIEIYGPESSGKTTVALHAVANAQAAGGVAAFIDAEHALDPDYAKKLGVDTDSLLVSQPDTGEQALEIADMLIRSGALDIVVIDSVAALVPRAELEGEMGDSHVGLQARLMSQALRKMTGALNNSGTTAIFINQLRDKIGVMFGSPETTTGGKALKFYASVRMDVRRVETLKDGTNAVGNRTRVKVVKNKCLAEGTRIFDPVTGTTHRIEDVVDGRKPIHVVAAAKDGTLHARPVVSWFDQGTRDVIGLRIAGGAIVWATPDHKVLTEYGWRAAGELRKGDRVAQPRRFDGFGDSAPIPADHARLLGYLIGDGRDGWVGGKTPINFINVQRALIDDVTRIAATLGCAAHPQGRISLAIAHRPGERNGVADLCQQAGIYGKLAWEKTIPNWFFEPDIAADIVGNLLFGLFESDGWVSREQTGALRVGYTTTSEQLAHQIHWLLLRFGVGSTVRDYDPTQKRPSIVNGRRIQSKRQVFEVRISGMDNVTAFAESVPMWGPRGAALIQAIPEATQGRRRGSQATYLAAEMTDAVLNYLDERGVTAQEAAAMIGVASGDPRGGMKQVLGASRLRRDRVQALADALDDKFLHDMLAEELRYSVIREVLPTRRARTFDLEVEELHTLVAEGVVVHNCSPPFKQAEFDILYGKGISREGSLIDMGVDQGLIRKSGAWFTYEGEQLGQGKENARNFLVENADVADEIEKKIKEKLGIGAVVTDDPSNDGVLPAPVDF
Mtb H37Rv – M. tuberculosis H37Rv growth inhibitors, H37Rv strain (AID 1626); inhibition, % at 10 µM; hits with a dose series show IC50 in µM; actives 0.95% (n = 220,000); M. tuberculosis H37Rv growth inhibition; higher % means a stronger effect;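 active = confirmed in a dose series; inconclusive = inhibition above 80% but not taken into the dose series; inactive = below 80% or under 30% at every dose of the series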;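 also: bacteria incubated seven days before Alamar blue readout; 0% = bacteria only wells and 100% = bacteria with antibiotic wells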
Arbovirus inh repeat – second read-out of Arbovirus inh, no call of its own (marks repeat the call); inhibition, %; measured here: 10K subset replicate screen; many hits read low in the repeat;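 first of two repeat runs on a subset; 0% = infected and 100% = uninfected wells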
The depositor's hits bear a star; ? = inconclusive; . = no result given.

SMILES	Arbovirus inh	Mtb betalactam	YopH inh	RecA splice inh	Mtb H37Rv	others
COc1ccc2nc(NC(=O)C3CCN(C(=O)c4ccc(F)cc4)CC3)sc2c1	.	96	.	-2.2	.
COc1ccccc1/C=C/C=N/n1c(-c2ccc(F)cc2)n[nH]c1=S	.	2	.	0.3	10%
Cc1ccc(SCC(=O)OCC(=O)NCCNC(=O)COC(=O)CSc2ccc(C)c(C)c2)cc1C	.	3	.	0.6	.
CCN(C(=O)Cn1cnc2ccccc2c1=O)C1CCS(=O)(=O)C1 (stereo unspecified)	.	-5	.	-0.8	.
CCN(CC(=O)NC(=O)NCc1ccccc1)Cc1nc2ccccc2c(=O)[nH]1	11	63	.	1.4	2%
Cc1cc(C)cc(NC(=S)NCc2ccc(F)cc2)c1	17	64	-7	-4.4	15%
Cc1ccc(-n2cc(CN3CCN(Cc4nccn4C)CC3)c(-c3cccc(C)c3)n2)cc1	-34	74	.	4.4	-1%
Cc1cccc(C(C)C)c1NC(=O)COC(=O)CNS(=O)(=O)c1ccccc1	.	-3	.	-0.2	.
Cc1cc(OCc2cc(C(=O)N(C)CCOc3ccccc3)no2)cc(C)c1Cl	.	15	.	5.6	.
NC(=O)C1(S(=O)(=O)c2ccccc2)CCCCC1	6	7	-48	0.8	-1%	Arbovirus inh repeat=-1

The closing four entries of the part before come first, to join the parts:
SMILES	Arbovirus inh	Mtb betalactam	YopH inh	RecA splice inh	Mtb H37Rv	others
Cc1ccc(-n2cc(CN3CCN(Cc4nccn4C)CC3)c(-c3cccc(C)c3)n2)cc1	-34	74	.	4.4	-1%
Cc1cccc(C(C)C)c1NC(=O)COC(=O)CNS(=O)(=O)c1ccccc1	.	-3	.	-0.2	.
Cc1cc(OCc2cc(C(=O)N(C)CCOc3ccccc3)no2)cc(C)c1Cl	.	15	.	5.6	.
NC(=O)C1(S(=O)(=O)c2ccccc2)CCCCC1	6	7	-48	0.8	-1%	Arbovirus inh repeat=-1
CCn1c(SCC(=O)NC(C)C)nnc1-c1cccs1	5	1	-5	0.3	-7%
N#CCCn1cc(C(=O)Nc2ccc([N+](=O)[O-])cc2)c(-c2ccc3c(c2)OCCO3)n1	17	7	-16	9.4	3%
COc1cccc(CNC(=O)C2CCN(S(=O)(=O)N3CC(C)CC(C)C3)CC2)c1 (stereo unspecified)	-3	5	-29	0.2	-6%
C=CCn1c(Cc2cccs2)nnc1SCC(=O)c1ccc2ccccc2c1	4	-12	3	14	11%
Cc1ccc(S(=O)(=O)CCC(=O)OCC(=O)N2c3ccccc3NC(=O)C2(C)C)cc1	.	0	.	2.8	.
CN=C(Nc1ccc(C)c(C)c1)SC1CC(=O)N(c2ccc(OC)cc2)C1=O (stereo unspecified)	0	0	.	-0.5	0%
CCN(CC)c1c(-c2ccccc2)c2cc(C)ccc2[nH]c1=O	5	-3	4	1.3	-2%
COP(=O)(CC(=O)O)c1ccccc1 (stereo unspecified)	8	1	6	0.2	3%
COc1cc(S(=O)(=O)Nc2ccccn2)ccc1F	6	?	-33	0.2	-2%
O=C1CC(c2ccccc2)CN1C(=O)c1cccnc1 (stereo unspecified)	3	0	.	-1.4	3%
O=C(Nc1ccccc1)c1ccc(S(=O)(=O)N2CCCC2)cc1	-4	-14	-31	1.9	-4%
CCOc1ccc(NC(=O)CC2SC(N)=NC2=O)c([N+](=O)[O-])c1 (stereo unspecified)	8	-5	.	-3.6	2%
C=CCN(C1CCCCC1)S(=O)(=O)c1ccc2c(c1)oc(=O)n2C	-8	2	-42	2.2	-5%	Arbovirus inh repeat=-1
CC1(C)CC(NC(=O)CCc2nnc(CCCCc3ccccc3)o2)CCO1 (stereo unspecified)	4	2	.	0.0	-4%
CCN1CCN(C(=S)c2ccc([N+](=O)[O-])cc2)CC1	4	-2	-18	-3.1	-10%
Cc1ccc(C)c(NC(=O)C2CC=CCC2C(=O)O)c1 (stereo unspecified)	14	-3	-43	0.2	-1%	Arbovirus inh repeat=-3
O=c1[nH]c2ccccc2o1	1	-4	-15	.	-5%
C[C@@H]1C(=O)O[C@@H]2[C@H](O)C34[C@@H]5OC(=O)C3(O[C@H]3OC(=O)[C@H](O)C34[C@H](C(C)(C)C)[C@H]5O)[C@@]12O (stereo partly specified)	6	-9	-21	-2.2	-9%
COc1cc(C(=S)N2CCOCC2)cc(OC)c1OS(=O)(=O)c1ccc(C)cc1	.	-19	.	-2.8	.
CCN(CC)S(=O)(=O)c1ccc(N2CCCCC2)c(NC(=O)C2CCN(C(=O)c3ccc(F)cc3)CC2)c1	.	-4	.	3.1	.
O=C(COc1ccc(Cl)cc1Br)N1CCN(c2ccccc2)CC1	4	-2	-41	-3.2	-1%
CN(C)C(=O)Oc1cccc(NC(=O)c2ccccc2C(F)(F)F)c1	.	-3	.	-0.1	-8%
O=C(/C=C/c1cccc([N+](=O)[O-])c1)N1CCN(Cc2ccc3c(c2)OCO3)CC1	-4	-11	-21	-2.5	-7%
Cc1cccc(N(C)c2cc(C)nc3ncnn23)c1	0	-5	-31	0.1	.	Arbovirus inh repeat=1
O=c1onc(-c2ccc(Cl)cc2)n1Cc1ccc(F)cc1	2	3	-8	3.3	9%
O=C(c1ccc(Cl)cc1)c1oc2ccccc2c1CS(=O)c1ccc(Cl)cc1 (stereo unspecified)	6	2	-26	.	4%
CC(=O)Oc1ccc2c(c1)OC(c1ccccc1)CC21CC(C)(C)NC(=O)N1 (stereo unspecified)	2	-5	-14	0.3	7%
CCn1cc(C(=O)N2CCCC(N3CCN(c4ccccc4C)CC3)C2)cn1 (stereo unspecified)	.	-4	.	-0.9	.
O=C(c1ccccc1-c1nc(-c2ccccc2)no1)N1CCCC1	-7	-11	-58	2.7	-4%
Cc1ccc(C(=O)NNC2CC(=O)N(c3ccc4c(c3)OCCO4)C2=O)cc1 (stereo unspecified)	-4	5	.	-6.5	-1%
CCC(=O)Nc1ccc(N2CCN(CC)CC2)c(Cl)c1	5	1	-149	-3.2	.
CC1CN=C(N(C(=S)Nc2ccccc2)c2cccc(C(F)(F)F)c2)S1 (stereo unspecified)	.	-3	.	-3.1	-1%
CC(NS(=O)(=O)c1ccc2[nH]c(=O)c(=O)[nH]c2c1)C(=O)O (stereo unspecified)	11	-11	.	.	-5%
O=C(CSc1nnc(SCc2ccc(F)cc2)s1)Nc1ccc(C(=O)O)cc1	.	14	.	1.5	-1%
Cc1cc2nn(-c3ccc(Cl)cc3)nc2cc1N	.	-7	.	21	.
CCCCNc1ccc2c3c(cccc13)C(=O)N(CCCC)C2=O	.	.	.	-262	33%
CC(=O)Nc1ccc(C(=O)N(C)C(C(=O)Nc2ccccc2)c2ccccn2)cc1 (stereo unspecified)	6	-5	-3	-2.6	-7%
O=C(COc1ccc(Cl)cc1Cl)c1ccc[nH]1	.	-8	.	4.0	.
CCOC(=O)N1CCC(N2C(=O)c3ccccc3C2Nc2cc(C(=O)OC)cc(C(=O)OC)c2)CC1 (stereo unspecified)	-2	-3	-13	-0.9	3%
O=C(Nc1ccccn1)c1cc2ccccc2cc1O	.	8	.	-5.2	.
COC(=O)Cc1cc(=O)n2[nH]c(C)cc2n1	2	-7	-20	0.6	-1%
CCOC(=O)c1nnn(-c2nc(OC)nc(N3CCCC3)n2)c1-c1ccccc1	1	9	15	-2.9	.
CC(C)NC(=O)CCCc1c[nH]c2ccccc12	10	-2	.	-4.7	-1%
Cc1c(Cl)cccc1NC(=O)Nc1c(C)n(C)n(-c2ccccc2)c1=O	.	-3	.	-1.5	.
CC(C1CCN(Cc2cn(C)nc2-c2cccc(Cl)c2)CC1)N1CCOCC1 (stereo unspecified)	-18	-3	.	-2.1	3%
Cc1occc1C(=O)N1CCN(Cc2ccccc2)CC1	1	-1	11	-0.3	-12%	Arbovirus inh repeat=4
Cc1ccc(N2C(=O)C(CN3CCCC3)C2c2ccccc2)cc1 (stereo unspecified)	9	-1	.	.	27%
COC(=O)c1ccc(NC(=O)Cn2c(-c3nonc3N)nc3ccccc32)cc1	-11	1	.	-0.7	1%
CCN(C(=O)COC(=O)c1[nH]c(=O)[nH]c(=O)c1N)c1ccccc1	5	5	.	-2.5	0%
S=C(NCCCCNC(=S)NCc1ccccc1)NCc1ccccc1	.	-9	.	-2.0	.
Next section
SMILES	Arbovirus inh	Mtb betalactam	YopH inh	RecA splice inh	Mtb H37Rv	others
FC(F)(F)c1ccccc1/C=N/Nc1ccccn1	-8	6	.	-0.3	-8%
CC12CN3CN(C1)CC(c1ccccc1)(C3)C2=O	5	2	-6	0.2	4%
CC(C)=CCSc1nnc([C@@H](NC(=O)OC(C)(C)C)C(C)C)o1	0	-2	-37	1.8	0%
CCN(C(=O)CSc1cc(C)c2ccc(OC)cc2n1)C1CCS(=O)(=O)C1 (stereo unspecified)	.	-9	.	0.7	-13%
O=S(=O)(c1ccc2c(c1)OCO2)N1CCN(c2nnnn2-c2ccccc2)CC1	4	?	-33	-1.6	-2%
NNC(=O)c1ccc(Cn2cc(Br)cn2)cc1	-13	-2	-21	3.2	2%
O=c1nc2ccccc2c2n1CC(CN1CCN(C(c3ccccc3)c3ccccc3)CC1)N2 (stereo unspecified)	-15	90	.	2.3	?
Cc1ccc(C(=O)NCC2CCCN2S(=O)(=O)c2ccc(C)cc2)cc1 (stereo unspecified)	.	-3	.	1.9	.
O=C(c1ccco1)c1n[nH]nc1-c1ccccc1	8	-15	-9	1.1	10%	Arbovirus inh repeat=4
CCN1CCN(C(=O)CN2C(=O)c3ccccc3S2(=O)=O)CC1	.	-2	.	-1.4	.

The final 5 compounds of the section above lead into the next:
SMILES	Arbovirus inh	Mtb betalactam	YopH inh	RecA splice inh	Mtb H37Rv	others
NNC(=O)c1ccc(Cn2cc(Br)cn2)cc1	-13	-2	-21	3.2	2%
O=c1nc2ccccc2c2n1CC(CN1CCN(C(c3ccccc3)c3ccccc3)CC1)N2 (stereo unspecified)	-15	90	.	2.3	?
Cc1ccc(C(=O)NCC2CCCN2S(=O)(=O)c2ccc(C)cc2)cc1 (stereo unspecified)	.	-3	.	1.9	.
O=C(c1ccco1)c1n[nH]nc1-c1ccccc1	8	-15	-9	1.1	10%	Arbovirus inh repeat=4
CCN1CCN(C(=O)CN2C(=O)c3ccccc3S2(=O)=O)CC1	.	-2	.	-1.4	.
CCN(CC)CCCN=C1N[C@@H](c2ccccc2)C(C(=O)OC)=C(C)N1CC	.	-10	.	1.9	.
COc1ccnc(Oc2ccc(F)cc2)c1C(=O)N/C=N/OCc1ccccc1	4	0	.	5.7	-3%
CSc1cccc(N2CC(C(=O)N(Cc3nnc(-c4ccccc4Cl)o3)C3CC3)CC2=O)c1 (stereo unspecified)	.	13	.	-2.9	.
Cc1ccc(S(=O)(=O)NC(CC(C)C)C(=O)Nc2nccs2)cc1 (stereo unspecified)	-13	-18	-12	-0.2	-12%
Nc1ncnc2nc(SCCc3ccccc3)[nH]c12	-19	2	-32	3.5	-3%
CCOc1cccc(C(=O)NC2=NCCS2)c1	.	0	.	0.9	.
COc1ccccc1CN1CC(C(=O)N(C)Cc2ccc(C)o2)CCC1=O (stereo unspecified)	.	5	.	0.9	.
Cc1cccnc1Nc1nc(-c2ccccn2)cs1	-16	99	-8	-0.3	?
COc1ccc2oc(=N)c(C(=O)Nc3cccc(C)c3C)cc2c1	.	1	.	-2.4	.
CN(CC(=O)Nc1ccc(Cl)cc1)CC(=O)Nc1ccc(F)c(F)c1F	7	.	-18	1.1	8%
Cc1cccc(N2CCN(C(=O)C3CCCCC3)CC2)c1C	-1	6	-58	4.7	6%
COC(=O)CSc1ccc2nnc(-c3ccc(OC)c(OC)c3)n2n1	-4	0	-21	3.4	-2%	Arbovirus inh repeat=6
COC(C[C@@H](O)[C@H](C)[C@@H](O)COCc1ccccc1)OC	.	.	.	-1.5	-12%
O=C(NCc1ccccc1C(F)(F)F)C1CC(c2ccccc2[N+](=O)[O-])=NO1 (stereo unspecified)	-4	5	-33	0.8	-2%
c1ccc(SCc2nc3ccccc3s2)nc1	.	4	.	7.8	.
S=c1[nH]nc(C2CC2c2ccc(Cl)cc2)n1-c1ccc(Cl)cc1 (stereo unspecified)	13	-4	-30	15	6%
Cc1nn(CC(=O)Nc2nc3ccccc3s2)c(C)c1[N+](=O)[O-]	7	-4	-13	1.4	1%
CCn1c(Cc2ccccc2)nnc1SCC(=O)Nc1ccccc1F	-1	-5	.	0.7	1%
OC(COCc1ccco1)CN1CCN(c2ccccc2)CC1 (stereo unspecified)	2	3	-24	-1.5	-3%
COc1cccc(NC(=O)c2oc3ccccc3c2NC(C)=O)c1	-1	-3	-7	-1.1	3%
COc1ccc(N(CC(=O)NCc2ccco2)S(C)(=O)=O)c(OC)c1	-4	5	.	1.4	-5%
O=C(NCCCCCNC(=O)c1ccccn1)c1ccccn1	-8	2	.	-0.1	0%

Some of the compounds tested, so the mix of outcomes need not match the whole.
